# BJeLR viability: BJeLR cell viability loss. AID 1554. inhibition, % (test concentration not listed). BJeLR (HRASV12) viability, CellTiter-Glo ATP luminescence, 48 h; reference of the scale not given here. hit rate 0.17% among 300,000;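 active = replicate mean above 50%; inconclusive = above 50% but judged a plate artefact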;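 note: 50 nL library stock added to about 25 µL; numbers are from one replicate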
# Mtb hypoxia rep: reduces hypoxia-regulated biosensor signal in M. tuberculosis | M. tuberculosis hypoxia-regulated fluorescent reporter, fluorescence | AID 1159583 | fluorescence inhibition, % (concentration not given with the values) | hit rate 0.1% among 300,000;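 active = 35 to 45% if threefold the growth effect, above 45% if 1.5-fold the growth effect; inactive = the rest, general growth blockers included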;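 note: wells of about 50 µL received 100 nL stock; 0% = vehicle wells and 100% = reference inhibitor wells; whole bacteria with a GFP reporter of the hypoxia response; strong numbers were not always called active; many hits fall short of the cut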
# PrP UTR inh: inhibition of PrP 5' UTR reporter expression | hit rate 0.35% among 340,000 | cell-based PrP 5' UTR mRNA reporter, plate reader | inhibition, % (concentration not given with the values);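 active = every replicate at 50% or more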;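 note: 0 = median of the neutral control wells; tested in H4 reporter cells; numbers are from one replicate; inactives centre near -14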
# RN4220 kill: S. aureus RN4220 growth inhibition | inhibition, % (test concentration not listed) | hit rate 0.33% among 330,000 | OD600, 16 h | AID 1259311;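 active = z-score of -3 or lower and OD600 up to 0.18 on both plates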;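 note: plate controls were untreated cells for no effect and reference antibiotic for full effect; stock transfer was 100 nL into about 80 µL; one replicate is shown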
# Sa ugtP lethal: growth inhibition of S. aureus ugtP deletion strain; AID 1259309; growth inhibition, % (test concentration not listed); S. aureus RN4220 ugtP deletion, OD600 growth, 16 h; some inactives read as strong as hits; hit rate 0.54% among 330,000;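 active = z-score under -3 and OD600 up to 0.15 on both plates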;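 note: plate controls were untreated wells for no effect and antibiotic for full effect; wells of about 80 µL received 100 nL stock; the first replicate is given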
# Autofluor counter: compound fluorescence in toxin protease inhibitor counterscreen. AID 624483. compound autofluorescence counterscreen, microsphere flow cytometry; active compounds read high. hit rate 3.1% among 360,000. fluorescence intensity (concentration not given with the values);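 active = at least 3 SD above the mean of all compounds, about 16000 in these data; inconclusive = too few beads counted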;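 note: 100 nL of 1 mM stock went into each well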
# Mtb hypoxia rep growth: second read-out of Mtb hypoxia rep, no call of its own (marks repeat the call); growth inhibition, %; measured here: M. tuberculosis growth (absorbance);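 0% = vehicle and 100% = reference antibiotic; read after six days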
# * marks the source's active call; other numbers are inactive results; ? = inconclusive; . = not tested or not shown. Rows were taken by chance. About 4% of those tested had a hit in this group.
SMILES,BJeLR viability,Mtb hypoxia rep,Mtb hypoxia rep growth,PrP UTR inh,RN4220 kill,Sa ugtP lethal,Autofluor counter
CCOc1cc2[nH]c(=S)n(CCOC)c(=O)c2cc1OCC,6.7,0.3,3.7,-10.0,1.9,3.0,22228*
O=c1cc(Br)c(O)c(Br)cc1Br,.,1.7,5.2,-23.9,6.9,3.7,4130
COc1ccc(-c2noc(CCC(=O)NC3CCCCC3)n2)cc1OC,9.2,3.9,0.6,4.9,-1.8,15.2,3530
COc1ccccc1NC(=O)CSc1ncn(-c2ccccc2)n1,2.2,-8.1,-0.9,-19.9,0.7,-5.6,20548*
COc1ccc(NC(=S)NC(=NS(=O)(=O)c2ccc(Cl)cc2)c2ccccc2)cc1,.,2.9,8.0,-51.2,-1.9,-20.2,3908
COc1ccc(/C=C/C(=O)c2ccc3ccccc3c2O)cc1CN1CCOCC1,-9.2,.,.,-14.1,.,.,2180
Nc1ccc(CNc2ncn[nH]2)cc1,17.2,7.0,9.9,2.4,4.0,4.3,3261
CCNC(=O)c1cnn(-c2ccccc2)c1-c1ccccc1,-1.1,15.1,4.1,-12.0,0.6,1.7,4780
O=C1COc2ccc(C(=O)c3ccccc3C(=O)O)cc2N1,-7.8,5.8,6.1,3.5,1.7,3.8,2034
CCCOc1ccc(C(=O)OCCN2CCCCC2)c(O)c1,3.9,14.8,18.9,-24.0,2.9,12.6,4436
O=C(O)CN1C(=O)/C(=C\c2cc(Br)ccc2OCc2ccc(Cl)cc2)SC1=S,-4.4,13.4,3.1,-21.7,72.1,83.4,3920
CCCOc1ccc(-c2nc3c(c(=O)[nH]c(=O)n3Cc3ccccc3)n2CCO)cc1OCC,-4.2,4.9,-1.3,-0.7,1.4,9.4,5483
Cc1cccc(-n2nc3c(c2NC(=O)c2ccco2)CS(=O)(=O)C3)c1C,-11.8,4.5,3.7,-18.3,2.9,4.7,3905
Cc1ccc(C(=O)N/N=C/c2ccoc2)cc1C,10.5,.,.,-7.0,.,.,?
CCOC(=O)C1CCN(C(=O)CSC2=NCCS2)CC1,3.4,.,.,-24.5,3.6,5.2,3207
CCCCc1ccc(NC(=O)CN2C(=O)NC(Cc3ccccc3)C2=O)cc1 (configuration not stated),.,4.5,1.0,-11.9,5.6,5.9,5947
CC(=O)c1ccc(NC(=O)CCc2ccc(C)o2)cc1,-1.2,7.4,-1.5,-22.0,2.6,2.0,.
O=C(Nc1ccc(Cl)c(Cl)c1)C1=Cc2ccccc2OC1,-4.6,-2.4,9.0,-76.1,86.5*,98.4*,2559
COCOc1ccc(/C=C/C(=O)c2c(OCOC)cc(OCOC)c(CC=C(C)C)c2O)cc1OCOC,2.2,.,.,.,7.2,11.6,4902
COc1ccc(S(=O)(=O)N2CCCCC2)cc1NS(=O)(=O)c1ccc(CNC(C)=O)cc1,.,1.2,3.8,-7.0,2.9,5.6,3829
O=C(O)CC(NC(=O)C(c1ccccc1)c1ccccc1)c1ccc(F)cc1 (configuration not stated),-3.6,-4.0,3.3,-20.9,-0.9,2.2,4363
COc1ccc(OCC(=O)c2c(O)c3ccccc3oc2=O)cc1,9.0,3.6,7.8,-14.0,13.6,-4.3,11032
CC(=O)N1CCCc2cc(S(=O)(=O)N3CCCC(C(=O)NCc4ccc(C)cc4)C3)ccc21 (configuration not stated),5.7,-8.1,-9.2,-3.2,1.0,3.4,5426
CC(=O)N1c2ccc(S(=O)(=O)N3CCC(C(=O)N4CCN(c5ccc(Cl)cc5)CC4)CC3)cc2CC1C (configuration not stated),-12.5,-7.9,-5.5,-17.3,-2.1,23.8,5688
Cc1cc(N/N=C/c2ccc(O)cc2O)nc(N2CCOCC2)n1,11.1,.,.,-11.5,.,.,4947

# (next part)
SMILES,BJeLR viability,Mtb hypoxia rep,Mtb hypoxia rep growth,PrP UTR inh,RN4220 kill,Sa ugtP lethal,Autofluor counter
CC(=O)c1ccc(NC(=O)Nc2ccc(Cl)cc2)cc1,6.8,6.7,2.4,-130.9,-5.8,-27.8,9887
Cc1ccccc1CN1C(C(C)C)COCCS1(=O)=O (configuration not stated),.,12.9,8.1,.,8.7,-3.2,.
CN(C)CCCN1C(=O)C(O)=C(C(=O)c2cccs2)C1c1cccc([N+](=O)[O-])c1 (configuration not stated),1.7,0.5,-3.5,.,8.9,5.2,.
CCOc1ccc(NC(=O)CN(C)C(=O)c2cn(-c3ccc(F)cc3)nc2-c2cccc(OC)c2)cc1OCC,-22.8,-2.6,-6.9,-5.3,1.1,1.6,7603
CCC(=O)N1C(C(=O)N2CCCC2)CSC1c1ccc(OC)cc1 (configuration not stated),-3.1,.,.,-5.1,2.5,7.0,5039
COc1cccc(/C=C2\SC(=S)NC2=O)c1OS(=O)(=O)c1ccc(NC(C)=O)cc1,5.9,6.0,6.5,4.7,12.2,11.5,2572
CCn1c(CNC(=O)c2cccs2)nnc1SCC(=O)NCCc1ccccc1,-22.4,11.5,-3.9,-6.7,-1.7,4.4,24231*
Cn1c(=O)c2c(nc(NCCNC(=O)c3ccco3)n2Cc2ccc(F)cc2)n(C)c1=O,-0.3,7.4,-2.8,-13.4,3.6,2.0,3391
CCOC(=O)c1sc(-c2ccc(Br)cc2)cc1N,9.7,6.5,10.7,-155.1,-3.8,18.0,18598*
Cc1ccc(NS(=O)(=O)c2ccc(NC(=O)c3cccs3)cc2)c(C)c1,1.6,10.9,11.8,-32.2,2.9,-9.9,2524
O=C1c2ccccc2C(=O)c2cc(S(=O)(=O)Nc3ccccc3)ccc21,-18.2,7.3,6.2,-15.2,95.8*,89.2*,2321
O=C(O)CN1C(=O)SC(Nc2ccc(C(=O)O)cc2)C1=O (configuration not stated),-10.3,8.1,11.2,-12.6,4.9,3.2,3163
Cn1cnnc1SCc1ccc(C(=O)NN=C(CCC(=O)O)c2ccc(C(C)(C)C)cc2)cc1,.,-15.6,-12.6,.,-3.6,-2.1,.
COc1ccccc1/C=N/n1c(C)nnc1-n1nc(C)cc1C,-2.3,.,.,-15.0,.,.,9769
Cc1ccc(N(C(=O)c2csnn2)C(C(=O)NC(C)(C)C)c2ccccn2)cc1 (configuration not stated),-1.7,17.8,9.0,-36.7,10.0,0.9,3190
COc1ccc(Cl)cc1NC(=S)N1CCN(S(C)(=O)=O)CC1,4.9,4.7,-0.3,-6.0,2.0,10.6,.
Cc1ccc(C2C(S(C)(=O)=O)=C(O)C(=O)N2c2ccccc2)cc1 (configuration not stated) (tested in a mixture with another compound),3.9,.,.,4.6,1.3,-3.9,4470
O=C(O)c1ccccc1OCCOCCOc1ccccc1C(=O)O,.,0.5,6.8,-13.4,1.3,4.4,23112*
COc1ccccc1C(=O)C1CCCN(C(=O)CSc2ccccn2)C1 (configuration not stated),22.8,-5.3,-6.8,-18.0,-3.8,0.0,3147
O=C(COC(=O)c1ccc(NS(=O)(=O)c2cccs2)cc1O)Nc1ccc(F)cc1,-12.2,23.4,15.9,-17.2,1.1,-6.7,4675
COc1cccc(OCc2nc(-c3cccc([N+](=O)[O-])c3)no2)c1,2.7,1.8,-3.3,-16.6,7.2,6.7,4736
CC1CC(C)CN(C(=O)/C=C/c2ccc([N+](=O)[O-])s2)C1 (configuration not stated),4.2,8.4,4.6,-15.9,32.4,11.4,4283
Cc1ccc(C2=NN=C(NC(=O)CSc3nncn3C)SC2)cc1,-7.7,-8.1,5.5,-12.8,6.3,3.7,4642
COC(=O)CCC(=O)OC1(C)C(=O)C=C2C=C(C3CC3)N(CCCCO)C=C2C1=O (configuration not stated),0.5,-3.1,-5.9,-19.1,1.3,-6.6,4004
COc1ccc(C(=O)CN2CCN(c3ncccn3)CC2)cc1,0.7,1.2,1.8,-18.1,2.7,18.2,3693

# Ordered by molecular weight (smallest number first): part of the list above.
SMILES,BJeLR viability,Mtb hypoxia rep,Mtb hypoxia rep growth,PrP UTR inh,RN4220 kill,Sa ugtP lethal,Autofluor counter
CC(=O)c1ccc(NC(=O)Nc2ccc(Cl)cc2)cc1,6.8,6.7,2.4,-130.9,-5.8,-27.8,9887
CCCOc1ccc(C(=O)OCCN2CCCCC2)c(O)c1,3.9,14.8,18.9,-24.0,2.9,12.6,4436
COc1ccc(OCC(=O)c2c(O)c3ccccc3oc2=O)cc1,9.0,3.6,7.8,-14.0,13.6,-4.3,11032
O=C(O)c1ccccc1OCCOCCOc1ccccc1C(=O)O,.,0.5,6.8,-13.4,1.3,4.4,23112*

# Next part.
SMILES,BJeLR viability,Mtb hypoxia rep,Mtb hypoxia rep growth,PrP UTR inh,RN4220 kill,Sa ugtP lethal,Autofluor counter
CCn1c(SCC(=O)NC2CCCC2)nnc1C(C)NC(=O)c1ccccc1Br (configuration not stated),-1.1,-8.5,9.1,7.9,2.8,4.1,5071
Cc1ccc(S(=O)(=O)N2CCN(C(=O)CC(C)n3nc(C)c(Cl)c3C)CC2)cc1 (configuration not stated),-0.9,-2.2,-2.8,14.3,-3.7,-5.7,4998
COC(=O)C1=C(c2ccccc2)CC2CCC1N2C(=O)NCCCOC(C)C (configuration not stated),.,-2.4,3.6,.,-0.5,-6.6,.
COc1ccc(OC)c(-c2csc(NC(=O)C3=COCCO3)n2)c1,0.8,9.5,11.3,-17.4,3.8,0.3,4610
Cc1cccc(C(=O)NCC(=O)OCC(=O)c2ccc(Cl)s2)c1,4.3,-3.1,-5.3,-14.4,0.3,8.0,5939
Cc1ccc(NC(=O)C(=O)NCC2CCCN2S(=O)(=O)c2cccs2)cc1C (configuration not stated),4.9,7.4,2.4,-10.1,5.7,11.3,?
CC1CCc2cc(F)ccc2N1C(=O)c1ccncc1 (configuration not stated),-7.2,6.1,10.5,-7.2,3.8,2.2,1952
COc1cc(NC(=O)COC(=O)CSc2ccccc2F)c(C)cc1[N+](=O)[O-],-2.7,2.2,-1.4,-14.1,5.2,6.5,1993
Cc1ccc(N=N/C(=C\O)C(=O)c2ccc(Cl)cc2)cc1,7.3,-0.3,6.4,-1.8,-1.5,67.5,2890
CCCc1nnc(NC(=O)CC(C)c2ccccc2)s1 (configuration not stated),-3.2,-4.9,6.1,-11.2,0.9,1.7,4046
CC(C)c1cc(C(=O)OCC(=O)NC(=O)NCc2ccco2)c(O)c(C(C)C)c1,3.9,-3.5,-13.8,-18.1,-7.4,93.6*,5209
O=C(c1ccc([N+](=O)[O-])o1)N1CCN(c2nc3ccc(F)cc3s2)CC1,5.5,.,.,-14.0,5.4,2.4,?
Cc1ccc(S(=O)(=O)NCC(=O)OCC(=O)NC2CCCCC2)cc1,.,3.9,-6.4,-27.1,1.5,1.0,3015
O=C(NN=Cc1cccnc1)c1sc2ccccc2c1Cl,.,-2.0,1.4,.,2.4,2.9,.
COc1ccccc1C1/C(=C(/O)c2ccccc2)C(=O)C(=O)N1CC(C)C (configuration not stated),1.6,4.7,4.6,-15.2,13.6,1.6,13089
COc1ccc(CNC(=O)CCC(=O)c2ccc(C)cc2)cc1OC,1.9,6.0,7.1,-10.9,0.4,5.1,5502
O=S(=O)(NCc1ccccc1)c1ccccc1Br,9.2,13.6,-0.2,-11.5,9.3,6.1,3472
[N-]=[N+]=CC(=O)CNC(=O)[C@@H](Cc1ccccc1)N1C(=O)c2ccccc2C1=O,2.8,.,.,-0.8,-2.8,5.2,4083
CC1=NC(C)Cc2ccccc21 (configuration not stated),6.3,.,.,-11.5,-0.3,-6.6,2898
CCc1nc2ccccc2c(C(=O)OCC(=O)N(CCOC)c2c(N)n(Cc3ccccc3)c(=O)[nH]c2=O)c1C,.,-8.2,-0.5,-8.5,-2.1,-3.5,?
C=C(C)C(=O)Nc1cccc(C2=NOC3(C2)C[C@@H](C(N)=O)N(C(=O)/C=C/CC)C3)c1 (some centres not stated),0.4,.,.,-30.3,.,.,4029

# In the list so far, 5 contain bromine.
SMILES,BJeLR viability,Mtb hypoxia rep,Mtb hypoxia rep growth,PrP UTR inh,RN4220 kill,Sa ugtP lethal,Autofluor counter
O=c1cc(Br)c(O)c(Br)cc1Br,.,1.7,5.2,-23.9,6.9,3.7,4130
O=C(O)CN1C(=O)/C(=C\c2cc(Br)ccc2OCc2ccc(Cl)cc2)SC1=S,-4.4,13.4,3.1,-21.7,72.1,83.4,3920
CCOC(=O)c1sc(-c2ccc(Br)cc2)cc1N,9.7,6.5,10.7,-155.1,-3.8,18.0,18598*
CCn1c(SCC(=O)NC2CCCC2)nnc1C(C)NC(=O)c1ccccc1Br (configuration not stated),-1.1,-8.5,9.1,7.9,2.8,4.1,5071
O=S(=O)(NCc1ccccc1)c1ccccc1Br,9.2,13.6,-0.2,-11.5,9.3,6.1,3472
